Compound activity from PubChem BioAssay.
NPYLR7 agonist: mosquito NPYLR7 agonism | activation, % at 10 µM | HEK293T NPYLR7/Galpha15, GCaMP6s calcium fluorescence | hit rate 0.15% among 270,000; in the data active = activation above about 40%;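 also: 0% = vehicle and 100% = reference agonist at the receptor; some compounds past the cut are filed as inactive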
NPYLR7 agonist max-min: second read-out of NPYLR7 agonist, no call of its own (marks repeat the call); activation, %; measured here: Max-Min RFU normalised activation; some inactives read as strong as hits;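 span of the calcium signal over five minutes; 0% = vehicle and 100% = native peptide agonist; compound fluorescence can raise it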
Starred values were filed as active, the others as inactive; & = joins results of further samples. Only part of the results is shown; the hit share may differ from the screen's.

SMILES	NPYLR7 agonist	NPYLR7 agonist max-min
COc1cccc(NC(=O)N2CCC3(CC2)SCCN3C(=O)COc2ccccc2)c1	9	20
Cc1cc(=O)n(CC(=O)N2C[C@@H]3C4CCC(CC4)[C@@H]3C2)nc1C	5	4
Cc1ccc(F)cc1NS(=O)(=O)c1cc(C(=O)O)n(C)c1	-2	-4
N#Cc1ccc(C(=O)NCCC2CN(Cc3cnc[nH]3)CCO2)cc1 (stereo not drawn)	1	-3
COC(=O)c1occc1Cn1cnc(C#N)n1	-5	-5
Cc1cc(C)c(S(=O)(=O)Nc2ccc(O)c(C(C(=O)OC(C)C)C(=O)C(F)(F)F)c2)c(C)c1 (stereo not drawn)	4	5
C=CCCC(O)CN(Cc1c(C)nn(-c2ccccc2)c1Oc1cccc(C)c1)CC(C)C (stereo not drawn)	-2	5
CC(Oc1ccc(Cl)cc1)C(=O)N1CC=C(c2c[nH]c3ccccc23)CC1 (stereo not drawn)	11	16
CC(C)c1nc(CC(=O)Nc2cccnc2N2CCCC2)cs1	5	3
CCOC(=O)C1(Cc2cccc(F)c2)CCN(Cc2nccn2CC)CC1	-1	-5
COc1ccccc1N=Nc1ccc(NC(=O)CO)cc1C	-5	-5
COCCN1CCC(C(=O)N2CC=C(c3ccccc3)CC2)C1 (stereo not drawn)	2	-8
CCCCNC(=O)C1(C)CCN1C(=O)c1ccc2c(c1)C(C)(C)CCC2(C)C (stereo not drawn)	4	2
CC(C)NC(=O)CNC(C)COc1ccccc1 (stereo not drawn)	-8	-7
CC(=O)c1ccc(-c2ccccc2NC(=O)c2ccco2)s1	0	0
Nc1cc([N+](=O)[O-])c(N)c2c1C(=O)c1ccccc1C2=O	-2	-8
CN1C(=O)N(CC(=O)NCc2ccco2)C(=O)C12CCCCC2	-4	-6
CC(=O)N1CCN(c2cc(Cl)nc(SCC(=O)N3CC(C)OC(C)C3)n2)CC1C (stereo not drawn)	-17	-9
COc1ccc(C)c2sc(N(CCCN3CCOCC3)C(=O)c3ccc(C#N)cc3)nc12	-5	-10
COc1ccc(-c2nnc3ccc(SCC(=O)Nc4ccc(C)c(Cl)c4)nn23)cc1	13	13
COc1ccc(NC(=O)c2sc(=O)n(Cc3ccc(Cl)c(Cl)c3)c2C)cc1OC	9	6
Cc1nc(CC(=O)NCC2OCCc3ccccc32)cs1 (stereo not drawn)	-4	-8
CC(NC(=O)c1ccncc1)c1ccc2c(c1)OCCO2 (stereo not drawn)	3	-1
O=C(CSc1nnc(-c2ccccc2)n1-c1ccccc1)N/N=C\c1cccc2ccccc12	-4	-10
Cc1cc(C)cc(C(=O)Nc2c3c(nn2-c2ccc(C)cc2C)CS(=O)C3)c1 (stereo not drawn)	-2	-2
Additional results
SMILES	NPYLR7 agonist	NPYLR7 agonist max-min
Cn1nc(C(=O)N2CC[C@H](CO)[C@H](O)C2)c2c1CCCC2	5	24
CCCCN(C)c1c(CC)nc2ccc(C(=O)NCCN(C)C)cn12	-23	-26
Cc1cc([N+](=O)[O-])ccc1-c1ccc(/C=C2\SC(=S)N(CC(=O)O)C2=O)o1	-11	-17
COCC(=O)Nc1cc(C)nn1-c1ncnc2c1cnn2-c1ccc(F)cc1	20	12
COC(=O)CCCCC(=O)N1CCc2cc(OC)c(OC)cc2C1c1cccc(C(F)(F)F)c1 (stereo not drawn)	12	4
COc1ccc(-c2cc(C(=O)N3CCOCC3)c3c(C)nn(C4CCS(=O)(=O)C4)c3n2)cc1 (stereo not drawn)	1	7
Cc1nccn1-c1cc(NCCNC(=O)Nc2ccc(F)c(Cl)c2)ncn1	-13	-16
CC(C)c1nnc(C2CCN(C(=O)NCc3cccc4ccccc34)CC2)o1	-19	-21
CCOCCn1c(=O)c2c(nc3n2CC(C)CN3c2ccc(Cl)cc2)n(C)c1=O (stereo not drawn)	2	5
CC1(C(=O)Nc2cccc(NS(C)(=O)=O)c2)CCN1CCOc1ccccc1 (stereo not drawn)	6	2
Cc1cc2nc(Nc3nc(O)c(C)c(=O)[nH]3)nc(C)c2cc1C	14	5
C#CCN(C)C1CCN(C(C)=O)CC1	5	-2
COc1cc(OC)cc(C(=O)N(CCc2ccccc2)CC(=O)Nc2cc(C(C)(C)C)nn2-c2ccccc2Cl)c1	-3	-2
O=C(c1ccccc1Cl)N(Cc1ccc(F)cc1)Cc1ccccc1OS(=O)(=O)c1ccc(F)cc1	0	11
COc1cc(=O)n(-c2ccccc2)nc1C(=O)Nc1nc2ccccc2s1	2	2
Cc1nc2n(n1)C(=O)C(C(c1ccc(F)cc1)N1CCCC(C)C1)S2 (stereo not drawn)	-1	-1
COC(=O)c1cc(-c2ccc(/C=C3/N=C(c4ccccc4)OC3=O)o2)ccc1Cl	-16	-22
CC(=O)N1CCCC(C(=O)NC(C)c2ccc(F)c(F)c2)C1 (stereo not drawn)	-1	-2
COc1ccc(-c2ccc(OCCNS(=O)(=O)c3ccccc3)nn2)cc1	-8	-17
Cc1ccc(NC(=O)Cn2c(=NCC3CCCO3)sc3ccccc32)cc1 (stereo not drawn)	1	-1
O=C(c1cccc(S(=O)(=O)N2CCOCC2)c1)N1CCCCC1	-18&-18	-18&-21
CSc1ccccc1NC(=O)CCC(=O)N(C)Cc1cccc2cnccc12	18	7
CNS(=O)(=O)c1ccc(CNc2snc(Cl)c2C#N)s1	6	0
COc1cc(CN2CCCN(c3ccccc3NC(=O)C3CC3)C2=O)cc(OC)c1	6	6
CC1(C)C2CC=C(C=NNC(N)=O)C1C2 (stereo not drawn)	-1	-4
More records
SMILES	NPYLR7 agonist	NPYLR7 agonist max-min
O=C(COCC(F)(F)F)Nc1ccc2c(c1)C(=O)CCC2	8	5
O=C(COCc1ccccc1)N1CCN(c2cc(Oc3cccc(F)c3)ncn2)CC1	4	7
COC(=O)C(NC(=O)c1cc(=O)[nH]c2ccccc12)c1cccc(C)c1 (stereo not drawn)	9	5
S=C(NCC(c1ccco1)N1CCCC1)NC1CC2CCC1C2 (stereo not drawn)	5	3
O=C(NCc1cnn2ccccc12)c1cnc2ccccn12	6	5
O=c1[nH]cnc2ccc(Cl)cc12	3	11
COCCn1c(SCC(=O)Nc2ccc(C)cc2C)nc2c(c1=O)SC(C)C2 (stereo not drawn)	10	6
OCC1(Cc2ccccc2F)CCCN(Cc2cc3c(cc2Cl)OCO3)C1 (stereo not drawn)	4	0
CCc1ccc(S(=O)(=O)NCCOc2ccc3nnc(C)n3n2)s1	7	8
CCCc1nc(N2CCN(C(=O)CCCl)CC2)c2c(-c3ccccc3)noc2n1	15	25
CCn1c(SC(C)C(=O)Nc2cc(C)no2)nnc1-c1ccccc1 (stereo not drawn)	12	8
CCc1cc(Oc2cccc(C)c2C)nc(SCc2ccccc2C)n1	7	18
Cc1c(C(=O)NCc2ccc(F)c(F)c2)cnc2c(-c3c(F)cccc3Cl)cnn12	4	0
COc1ccc(CN(CCC(C)C)CC(O)COC(C)C)cc1OC (stereo not drawn)	-6	-1
COCCCN(CC(=O)N(CCc1ccc(OC)c(OC)c1)Cc1ccco1)C(=O)Nc1ccc(C)c(C)c1	-2	-9
Cc1nnc(NC(=O)CSc2nnc(CNC(=O)c3cccs3)n2-c2cccc(C(F)(F)F)c2)s1	-5	-3
CC(C(=O)O)n1cc(-c2ccc(S(C)(=O)=O)cc2)cn1 (stereo not drawn)	4	4
Cc1cc2cc(C(=O)NCCCn3nccc3C3CC3)ccc2o1	2	-8
COc1ccc(CCOC(=O)C2CCCCN2C(=O)/C=C(\C)CCC=C(C)C)cc1OC (stereo not drawn)	-3	-8
COc1cccc(-c2cc(NC(C)=O)n(CCOC(C)=O)n2)c1	8	6
CCOC(=O)c1c(NC(=O)CCl)sc(C(=O)N2CCCCC2)c1C	-4	-8
COc1ccc(-n2nnc3c(N4CCN(C(=O)CC5CCCC5)CC4)ncnc32)cc1	1	-4
COc1ccccc1N1CCN(c2nc(Nc3ccc(C)cc3)c3nccnc3n2)CC1	2	8
Nc1ncc(CN2CCCC(C(=O)Nc3ccc(-c4ccco4)cc3)C2)cn1 (stereo not drawn)	13	8
CCC(=O)Nc1c2c(nn1-c1ccc(Oc3ccccc3)cc1)CSC2	1	8
Going on with the list.
SMILES	NPYLR7 agonist	NPYLR7 agonist max-min
CCC(C(=O)N1CCN(C2c3ccccc3CCc3ccccc32)CC1)c1ccccc1 (stereo not drawn)	-4	7
Cc1cccc(OCc2nc(CN(CCN3CCOCC3)C(=O)C3CC3)cs2)c1	8	18
COCC(=O)N1CCC2(CC1)CN(CC1CCOC1)CCN2C (stereo not drawn)	0	0
COc1ccc(S(=O)(=O)Nc2ccc(Nc3cc(-n4ccnc4)nc(C)n3)cc2)c(C)c1C	-11	-16
COc1ccc(CNCC2CCCO2)cc1OS(=O)(=O)C(C)C (stereo not drawn)	-4	-12
CC1CC1C(=O)N(C)C(c1ccccc1)C(F)(F)F (stereo not drawn)	-2	-6
CCOC(=O)CCC(=O)N1CCN(C2c3ccccc3CCc3ccccc32)CC1	-5	3
CC(C)S(=O)(=O)Oc1cccc(CNCc2ccco2)c1	1	-5
O=C(C(Br)=CNc1ccc(Cl)c(Cl)c1)C(F)(F)F	5	3
CCc1ncc(C(=O)NC(C)(C)c2ccc(Br)cc2)s1	-3	-1
CCCCN(CC(=O)N1c2ccccc2-n2cccc2C1c1ccc(C)cc1)C(=O)Nc1ccccc1Br (stereo not drawn)	11	19
CCCCCCCCCC(=O)NCCC(=O)Nc1nnc(-c2ccc(C)cc2)s1	-2	6
CNC(=O)C1CCN(CC(=O)N(Cc2ccc(F)cc2)C2CCCCC2)CC1	5	2
COc1ccccc1-c1cc(CNC(=O)c2cnn3c2CCCC3)on1	6	4
CC1CCN(CCNC(=O)C2C3CCCCC32)CC1 (stereo not drawn)	9	6
CC(C)N(C)c1onc(-c2ccccc2)c1CN(Cc1ccco1)C(=O)c1ccc(Cl)cc1	-1	18
COc1ccc(CNC(=O)CN(c2cccc([N+](=O)[O-])c2)S(=O)(=O)c2ccccc2)cc1	21	17
C=CCOc1cccn2c(N(C)C(=O)c3ccco3)c(CC)nc12	11	-5
CCCC(=O)NCCCn1nc(-c2ccco2)ccc1=O	-1	-2
O=C(Nc1ccc2c(c1)OC1(CCCC1)O2)C1CC1	-3	-5
O=C(Cc1ccccc1Cl)Nc1ccc2c(c1)C(=O)N1CCCCC1CCO2 (stereo not drawn)	5	3
Cc1ccccc1CSCC(=O)NCCSC1CCCCC1	0	-1
CCOC(=O)C1CCN(C(=O)C2CC=CCC2C(=O)N2CCN(c3ccc(OC)cc3)CC2)CC1 (stereo not drawn)	-6	-12
COc1ccc(C(=O)NCCc2cc3c(OC)ccc(OC)c3[nH]c2=O)cc1OC	1	33
Cc1cnc(C)c(N2CCN(Cc3ccc4c(C)cc(=O)oc4c3)CC2)n1	-2	3
Other results follow.
SMILES	NPYLR7 agonist	NPYLR7 agonist max-min
CN(C)c1ccc(NC(=O)C2CCCC2)cc1CN(Cc1ccco1)C(=O)c1ccccc1Cl	-5	1
COc1cccc(Cc2nsc(Oc3cccc(C(=O)NCCCN4CCOCC4)c3)n2)c1	-4	-3
N#Cc1ccc[n+](Cc2cc(=O)[nH]c(=O)[nH]2)c1	3	2
COCCN(CC1CCN(Cc2ccccc2F)CC1)C(=O)c1ccoc1	-1	-7
CC1=C(C(=O)OCc2ccccc2)C(c2ccc(C)c([N+](=O)[O-])c2)NC(=O)N1C (stereo not drawn)	-7	-13
COc1cccc(COc2coc(CN3CCCN(S(=O)(=O)c4ccc(S(C)(=O)=O)cc4)CC3)cc2=O)c1	20	12
Cc1c(C(=O)N2CCOCC2C)nnn1-c1cccc2c1CCN(c1ccc(C#N)cn1)C2 (stereo not drawn)	1	-1
CC(C)n1cc(C(=O)N2CCN(Cc3ccccn3)CC2)c2nn(-c3ccccc3)c(=O)c-2c1	-5	-9
CCOC(=O)C1(CCOc2ccccc2)CCCN(C(=O)c2cc(=O)n(C)c(=O)n2C)C1 (stereo not drawn)	-1	-4
Cc1cccc2c(C(=O)N3CCCCC3c3cccnc3)cc(-c3cncnc3)nc12 (stereo not drawn)	-5	-9
Cc1ccc2c(c1)N(C)C(=O)c1cc(NS(=O)(=O)CC(C)C)ccc1O2	6	1
COc1cccc(OCc2cc(C(=O)NCc3ccccn3)no2)c1	2&9	1&5
C#Cc1cccc(C(=O)N(CC)CC2CCCN(CCc3cccc(OC)c3)C2)c1 (stereo not drawn)	13&-1	0&-1
COc1ccc(S(=O)(=O)N(C)CCc2ccccc2)cc1N1CCN(C(=O)C(C)Oc2ccccc2)CC1 (stereo not drawn)	18	13
